Assay outcomes from PubChem BioAssay.
AmpC inh no det = Promiscuous and Specific Inhibitors of AmpC Beta-Lactamase (assay without detergent) | Potency, µM (titrated, usually from 28.7 µM), without a hit: at the highest dose activity change, negative = inhibition | AmpC nitrocefin hydrolysis, absorbance 480 nm, no detergent; potencies from a single point are estimates | AID 585, 2007 | 1.8% of 71,000 active | P00811; active = falling curve, for most hits resting on a single point; inconclusive = weak or doubtful change; inactive = flat or rising curve; note: % of control where 0% means no effect; about half of the hits show no inhibition at the top dose; a quarter of the inactives give rising signals
Target sequence (P00811 whole entry, looked up): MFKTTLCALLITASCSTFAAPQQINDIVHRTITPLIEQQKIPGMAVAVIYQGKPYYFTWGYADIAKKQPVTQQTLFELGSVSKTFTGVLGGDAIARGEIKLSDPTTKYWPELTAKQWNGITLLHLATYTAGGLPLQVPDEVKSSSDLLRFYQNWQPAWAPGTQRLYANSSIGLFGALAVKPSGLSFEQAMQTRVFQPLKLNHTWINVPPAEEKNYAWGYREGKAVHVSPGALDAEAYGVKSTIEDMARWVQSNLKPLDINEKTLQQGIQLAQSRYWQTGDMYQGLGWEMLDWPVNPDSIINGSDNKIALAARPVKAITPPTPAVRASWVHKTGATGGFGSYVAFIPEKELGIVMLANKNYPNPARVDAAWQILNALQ
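Enzyme, pH 7.0 phosphate. Compound titrations were pre-incubated with AmpC for 15 min at room temperature before nitrocefin (stock 800 uM) addition; product formation was recorded at 480 nm every 20 s for 4 min.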
Starred values were filed as active, the others as inactive; ? = inconclusive; & = joins results of further samples; [ ] = dose if it differs, or a comment. Potency is the fitted concentration of half-maximal effect.

mol | AmpC inh no det
C=CCn1nnc2sc3c(c2c1=O)CCC(C)C3 (stereo not drawn) | -1%
O=c1[nH]c(=O)n(Cc2ccccc2)c(O)c1C=NCCCO | -5%
O=C(NCc1ccco1)c1ccccc1NC(=O)C1CC(=O)N(c2ccc(Cl)cc2)C1 (stereo not drawn) | 15%
Cc1nn(-c2ccccc2)cc1/C=N/O | -7%
O=C(CCN1CCCCC1)Nc1ccc(Br)cc1 | ?
Cc1nnc(C)c2c(C)n(Cc3ccc4c(c3)OCO4)c(C)c12 | 21%
CC(C)=CC(=O)N1CCCc2ccccc21 | 5%
CN1CCN(S(=O)(=O)c2ccc(NC(=O)C3CCCO3)cc2)CC1 (stereo not drawn) | -23%
COc1ccc(CNC(=O)C(OC(C)=O)c2ccccn2)cc1 (stereo not drawn) | 6%
COc1ccc(-n2nnc3c(=O)n(C/C=C/c4ccccc4)cnc32)cc1 | -4%
O=C(OCCO)c1cc(Cl)c(C(=O)OCCO)cc1Cl | 5%
CC(=O)N1CCN(c2ccc(NCc3ccc(C)s3)cc2)CC1 | 4µM*[single pt active]
COc1cc(-c2nnc(CSc3nnc4nc(C)cc(C)n34)o2)cc(OC)c1OC | 0%
COC(=O)C(C)Sc1nc2c(c(=O)[nH]c(=O)n2C)n1CCCc1ccccc1 (stereo not drawn) | 103%
CC(C)CCNC(=O)c1c(N)n(CC2CCCO2)c2nc3ccccc3nc12 (stereo not drawn) | 2%
COc1ccc(Nc2cc(C)nc(N3CCOCC3)n2)cc1 | 16%
COc1ccc(C(=O)N2CCN(c3nnnn3-c3ccccc3)CC2)cc1OC | 40%
Cc1nc2ccc(S(=O)(=O)N(C)CC(=O)N3CCc4ccccc4C3)cc2s1 | 96%
CCOC(=O)Cc1csc(NC(=O)c2ccc(S(=O)(=O)N3CCCC3)cc2)n1 | 42%
O=C(COC(=O)c1cc(=O)[nH]c2ccccc12)NC(=O)NC1CCCCC1 | 16%
Cc1ccc2c(CSc3nnc(C4CC4)n3N)cc(=O)oc2c1C | -18%
Cc1ccc(C(=O)Nc2nncs2)cc1S(=O)(=O)N1CCOCC1 | -12%
COCC(=O)Nc1ccc(C(N)=O)cc1 | 6%
O=C1CCCC2=C1C(c1cccc(Br)c1)n1nc(-c3ccco3)nc1N2 (stereo not drawn) | 7%
Clc1ccc(N2CCN(Cc3c[nH]c4ncccc34)CC2)cc1 | 23%&7%
CCOc1ccccc1Oc1coc2cc(OC(=O)c3ccco3)ccc2c1=O | 33%
COc1ccc(OC)c(C(=O)c2coc3ccc(O)cc23)c1 | 0%
CCCNS(=O)(=O)c1ccc(OCC(=O)Nc2ccccc2F)cc1 | 0%
CCS(=O)(=O)N1CCN(C(C)CCc2ccccc2)CC1 (stereo not drawn) | 29%
CCCc1nc(SCc2ccccn2)c2c(=O)n(C)c(=O)n(C)c2n1 | 63%
COc1ccc(Cl)cc1NC(=O)NC(C)c1ccncc1 (stereo not drawn) | -6%
COc1ccc(CN2C(=O)[C@@H]3C(c4ccccc4Cl)=NO[C@@H]3C2=O)cc1 | -12%
O=C(NC1CCCCC1)N(CCN1CCCC1)Cc1cc2cc3c(cc2[nH]c1=O)OCCO3 | 49%
O=C(NCCCN1CCCC1=O)c1nnc(Cc2c(F)cccc2Cl)o1 | -1%
Cc1cc(C)n(-c2nc(C)nc(N)n2)n1 | 8%
CC1=C(C)CC(C(=O)Nc2cccc(Cl)c2)C(C(=O)O)C1 (stereo not drawn) | 7%
CC1CN(c2nc3ccccc3nc2C(C#N)C(=O)OC2CCCCC2)CC(C)O1 (stereo not drawn) | 70%
CC(=O)Nc1cccc(NC(=O)CSc2nnc(Cc3cccn3C)n2-c2ccc(C)cc2)c1 | 93%
CCC(C)Nc1ccc(NC(C)CC)cc1 (stereo not drawn) | 64%
O=c1c2ccccc2nc(SCc2nnc(-c3ccccc3)o2)n1-c1ccc(F)cc1F | 6%

Entries from the list above containing bromine (2):
mol | AmpC inh no det
O=C(CCN1CCCCC1)Nc1ccc(Br)cc1 | ?
O=C1CCCC2=C1C(c1cccc(Br)c1)n1nc(-c3ccco3)nc1N2 (stereo not drawn) | 7%

Continued.
mol | AmpC inh no det
Nn1c(-c2ccccn2)nnc1-c1ccccn1 | -9%
CCCCSc1nc2c(cc1C#N)CCC2 | -6%
Cc1ccc(N2C(=O)CC(NCc3ccc4c(c3)OCO4)C2=O)cc1Cl (stereo not drawn) | 10%
CCOC(=O)c1cccc(S(=O)(=O)N(CCO)Cc2cc3cc(OC)ccc3[nH]c2=O)c1 | 46%
Cc1cccc2sc(NC(=O)Cn3cccc3)nc12 | -8%
O=C(OCC(=O)N1CCN(c2ccccc2)CC1)C1=COCCO1 | -2%
CCCCNS(=O)(=O)c1ccc(OC)c2ncccc12 | 7%
Cc1ccc(S(=O)(=O)NCCSc2nnnn2-c2cc(C)ccc2C)cc1 | 4%
CN1[C@H](Cc2ccccc2)C=C[C@]1(C)C(=O)NCC1CC1 | 64%
Cc1cccc(C(=O)O)c1C[C@H]1NCC[C@H]2c3ccccc3N[C@@H]12 | 5%[5.75 µM]
CCOc1ccc(OCC)c(NC(=O)C2CCN(S(=O)(=O)c3cnc[nH]3)CC2)c1 | 12%
c1ccc(CCc2ccccc2-c2nc(-c3cccnc3)no2)cc1 | 26%
CCc1ccc(OCCCN=C(C)c2c(O)n(C)c(=O)n(C)c2=O)cc1 | 131%
CN(C)C(=O)c1ccc(-c2ccc3ncnc(Nc4ccc(F)cc4)c3c2)cc1 | 15%
COC(=O)[C@@H]1C[C@@H]1[C@@H](NP(=O)(c1ccccc1)c1ccccc1)c1ccccc1 | 96%
COc1ccc(CCNC2CC(=O)N(CCc3ccccc3)C2=O)cc1OC (stereo not drawn) | 96%
COc1ccccc1C1C=C(c2ccc(Cl)cc2)Nc2nc(NS(C)(=O)=O)nn21 (stereo not drawn) | -14%
O=C(Nc1ccc2c(c1)OCO2)N1CCN(c2cccc(C(F)(F)F)c2)CC1 | 8%
CC(C)C(=O)Nc1cccc(NC(=O)CCN2C(=O)c3ccccc3S2(=O)=O)c1 | 15%
CC(O)c1nc2ccccc2n1C1CCCCC1 (stereo not drawn) | 30%

6 records picked at random from those above:
mol | AmpC inh no det
CCCCSc1nc2c(cc1C#N)CCC2 | -6%
COC(=O)[C@@H]1C[C@@H]1[C@@H](NP(=O)(c1ccccc1)c1ccccc1)c1ccccc1 | 96%
Cc1cccc(C(=O)O)c1C[C@H]1NCC[C@H]2c3ccccc3N[C@@H]12 | 5%[5.75 µM]
Cc1cccc2sc(NC(=O)Cn3cccc3)nc12 | -8%
O=C(OCC(=O)N1CCN(c2ccccc2)CC1)C1=COCCO1 | -2%
O=C(Nc1ccc2c(c1)OCO2)N1CCN(c2cccc(C(F)(F)F)c2)CC1 | 8%

New compounds follow.
mol | AmpC inh no det
CCOC(=O)Cc1csc(NC(=O)CSc2nnnn2-c2ccc(CC)cc2)n1 | 44%
CCCCOc1[nH]c2nc(-c3ccco3)n(Cc3ccco3)c(=N)c2c1C#N | -11%
CCn1cc(C(=O)NC2CCCC2)c(=O)c2cc(S(=O)(=O)N3CCOCC3)ccc21 | 83%
CCCOc1ccc(C2C(C#N)=C(N)Oc3nc[nH]c(=O)c32)cc1OC (stereo not drawn) | -2%
CCOC(=O)c1ccc(NC(=O)NC2CCN(CC(=O)NCc3ccc4c(c3)OCO4)CC2)cc1 | 40%
O=C1CC[C@@]2(O)[C@H]3Cc4ccc(O)c5c4[C@@]2(CCN3CC2CC2)[C@@H]1O5 | -8%&5%
CCN(CC)S(=O)(=O)c1csc(C(=O)NC2CCCCC2)c1 | -3%
CCOC(=O)c1cnc(-n2nc(C)cc2C)nc1Nc1ccc(N(C)C)cc1 | 96%
CCOc1ccc(S(=O)(=O)n2ccnc2)c2ccccc12 | 4µM*[single pt active]
Cc1cccc(NC(=O)CN(C)S(=O)(=O)c2ccc(Cl)cc2)n1 | 4%
CCC(Oc1ccccc1)C(=O)NCc1cccnc1 (stereo not drawn) | 12%
O=C(O)C(NS(=O)(=O)c1cccc2cccnc12)c1ccccc1 (stereo not drawn) | -1%
OC1CCN(c2c3c(nc4cc(-c5cccc(F)c5)nn24)CCCC3)CC1 | 34%
CCn1c(=O)cc(SCC(=O)Nc2cccnc2)c2ccccc21 | 28%
c1ccc2oc(C3=NCCN3)cc2c1 | 9%
FC(F)(F)c1cc(-c2ccccc2)nc(NCC2CCCO2)n1 (stereo not drawn) | 49%
Cc1csc(=Nc2ccc(S(=O)(=O)N3CCOCC3)cc2)n1Cc1ccco1 | 52%
CC(C)C(C(=O)Nc1cccnc1)N1C(=O)c2ccccc2C1=O (stereo not drawn) | -5%
COC(=O)c1[nH]c2cc(OC)c(OC)cc2c1NC(=O)CN1CCN(Cc2ccccc2)CC1 | 98%
C=CCSc1nnc(Cc2c(C)[nH]c3ccccc23)o1 | 29%
COCCCNC(=O)C1CCCN(C(=O)Nc2ccc(OC)cc2)C1 (stereo not drawn) | -13%
COc1cc(C)nc(NS(=O)(=O)c2ccccc2)n1 | 1%
CC(=O)c1cc(C#N)c(SCC(=O)OC(C)(C)C)nc1C | 28%
O=C(c1cccc(OC(F)F)c1)N1CCN(c2ncccn2)CC1 | 21%
Cc1ccc2cc(C(c3nnnn3C3CCCC3)N3CCN(c4ccccc4)CC3)c(=O)[nH]c2c1 (stereo not drawn) | 54%
CCN(CC)c1ccc2c(Cl)c(Br)c(=O)oc2c1 | 27%
CCc1ccc(C(=O)N2CCCC2)s1 | -6%
COc1ccc(CC(=O)Nc2c3c(nn2-c2cccc(C)c2C)CS(=O)(=O)C3)cc1 | 16%
CCOc1cccc(C2NCc3ccccc3-n3cccc32)c1O (stereo not drawn) | -4%
COc1ccc(Oc2ncc3nc(-c4cn(C)c5ccccc45)c(=O)n(C)c3n2)cc1 | 6%
C=CCNC(=O)C1CCN(S(=O)(=O)c2ccc(Br)cc2)CC1 | 26%
Cn1cc(Cl)c(C(=O)NC2CCCCCC2)n1 | 6%
NC(=O)CSc1nnc(C2CC2)n1Cc1ccccc1 | 2%
NCC[C@H](O)C(=O)N[C@H]1C[C@@H](N)[C@@H](O[C@H]2O[C@@H](CN)[C@@H](O)[C@@H](O)[C@@H]2N)[C@@H](O[C@H]2O[C@@H](CO)[C@@H](O)[C@@H]2O)[C@@H]1O | -6%[12.8 µM]
CCOc1ccc(-c2cc(CCCC(=O)NCc3ccco3)no2)cc1 | 14%
COc1ccc(C2C(CC(=O)O)=C(O)C(=O)N2c2ccccc2)cc1 (stereo not drawn) | -1%
Cc1cccc(-c2nc(C#N)c(N3CCCCCC3)o2)c1 | 28%
O=C1CCC(c2ccc(-n3ccnc3)cc2)=NN1 | -1%
O=C(Nc1ncnc2c1CCC2)C12CC3CC(CC(C3)C1)C2 | 18%
CC(=O)Nc1ccc(NS(=O)(=O)c2cn(C)c(=O)n(C)c2=O)cc1 | 9%

Another view of part of the listing above:
> COc1ccc(C(=O)N2CCN(c3nnnn3-c3ccccc3)CC2)cc1OC
  AmpC inh no det = 40%

> Cc1nc2ccc(S(=O)(=O)N(C)CC(=O)N3CCc4ccccc4C3)cc2s1
  AmpC inh no det = 96%

> CCOC(=O)Cc1csc(NC(=O)c2ccc(S(=O)(=O)N3CCCC3)cc2)n1
  AmpC inh no det = 42%

Additional entries:
mol | AmpC inh no det
CC(C)(C)C1CCc2onc(C(=O)Nc3cnn(Cc4ccc(F)cc4)c3)c2C1 (stereo not drawn) | 28%
CCOC(=O)c1c(C)nc2c(C#N)cnn2c1C | 0%
COC(=O)CSc1nnc(C2COc3ccccc3O2)n1-c1ccccc1 (stereo not drawn) | 72%
CC(C)C(c1nnnn1CC1CCCO1)N1CCN(Cc2ccc3c(c2)OCO3)CC1 (stereo not drawn) | 15%
COc1ccc(-c2cc(C(=O)NCC(C)C)no2)cc1 | 8%
CCOc1ccccc1C(=O)Nc1ccccc1O | -17%
COc1ccc(-c2ccc(=O)[nH]n2)cc1 | -5%
Cc1ccc(C)c(S(=O)(=O)N2CCC(c3nc4c(nnn4Cc4ccc(F)cc4)c(=O)[nH]3)CC2)c1 | 19%
C[N+]1(CCOS(=O)C23CC4CC(CC(C4)C2)C3)CCOCC1 (stereo not drawn) | -12%
Cc1cc(C)nc(N2CCC(CNC(=O)CCc3ccccc3)CC2)n1 | 66%
Cc1cc(C)cc(OCC(=O)N2CCCCCC2)c1 | 22%
COc1ccc(C(c2nnnn2C2CCCC2)N2CCC(C)CC2)cc1 (stereo not drawn) | 40%
COc1cc2c(cc1OC)/C(=C/C#N)NC(C)(C)C2 | 12%
Cc1ccc(C)c(NS(=O)(=O)c2cc(C(N)=O)ccc2C)c1 | 5%
N#Cc1cccc(NC(=O)Nc2cccs2)c1 | ?
Cc1ccc(NC(=O)Cn2cccc2)cc1Cl | 1%
Cc1cc(N2CCN(C(=O)c3ccco3)CC2)n2ncc(-c3ccccc3)c2n1 | 111%
Cn1cnc2cc(NS(=O)(=O)c3ccc(Br)cc3)ccc21 | -15%
COc1cc(-c2nnc(SCC(=O)Nc3cc(C)on3)n2C)cc(OC)c1O | -6%
CCCCN(CC)C(=O)C1CCC(=O)N(c2ccc(OC)cc2)C1c1ccc(OC)c(OC)c1 (stereo not drawn) | 75%
CCCN(CCC)S(=O)(=O)c1ccc(C(=O)NCc2ccc3c(c2)OCO3)cc1 | -9%
Cc1nc2cc(C(F)(F)F)ccc2n1C1CCN(Cc2nnnn2Cc2cccs2)CC1 | 160%

Some of the compounds tested, so the mix of outcomes need not match the whole.
